VACV mCherry inh: qHTS for Stage-Specific Inhibitors of Vaccinia Orthopoxvirus: mCherry Reporter Primary qHTS; hit rate 0.63% among 310,000; Vaccinia virus mCherry reporter infection, fluorescence; about a quarter of the inactives have no number; Potency, µM (top dose mostly 36.5 µM), for the others: top-dose activity change, negative = inhibition, hits mostly inhibitors; active = well fitted inhibition curve with a large enough effect; inconclusive = small, poorly fitted or top-dose-only effect; inactive = no such curve, though single readings can be large or run the other way; tested in A549 cells; also: nearly all actives have a fitted effect of over 35% in size; inactives centre near -10
Vaccinia Venus: qHTS for Stage-Specific Inhibitors of Vaccinia Orthopoxvirus: Venus Reporter Primary qHTS; Potency, µM (highest dose often 36.5 µM), for the others: at the highest dose activity change, negative = inhibition, actives largely listed as inhibitors; hit rate 0.46% among 330,000; Vaccinia virus Venus reporter expression, fluorescence; active means well fitted inhibition curve with a large enough effect; inconclusive means small, poorly fitted or top-dose-only effect; inactive means no such curve, though single readings can be large or run the other way; tested in A549 cells; also: nearly all actives have a fitted effect of over 30% in size; inactives centre near -10
Active calls of the source: *; i = inactive; u = inconclusive; x = no result given. % is scaled to controls: 0 for no effect and ±100 for the full control effect; potency is read from the fitted curve at half-maximal effect.

canonical_smiles	VACV mCherry inh	Vaccinia Venus
CC(=O)Nc1ccc(NC(=O)c2cnn(-c3ccccc3)c2C2CCN(C(=O)OC(C)(C)C)CC2)cc1	3.5%	0.0%
N#CCCN(C(=O)COC(=O)c1cccc(S(=O)(=O)N2CCCC2)c1)c1ccc(F)cc1	-4.2%	-18.9%
N#CC(=C1C=CC(=NO)C(Cl)=C1)c1ccccc1	1.1%	-10.3%
CCc1nc2c(OCC=C(C)C)cccn2c1N(C)C(=O)c1ccc(OC)cc1	-29.8%	-18.9%
C/C=C(\C)CN1CCC(n2nccc2NC(=O)c2ccc3c(c2)OCO3)CC1	-10.5%	-5.0%
CC12CN3CCN(CC(C3)/C1=N/N=C/c1cccc([N+](=O)[O-])c1)C2	-12.4%	-4.3%
COC(=O)[C@@]1(Cc2ccc(OC)cc2)[C@H]2c3cc(C(=O)N4CCCC4)n(Cc4ccc(Cl)c(C(F)(F)F)c4)c3C[C@H]2CN1C(=O)c1ccccc1	-21.2%	-15.8%
COc1ccc(/C=C(/NC(=O)c2ccccc2)C(=O)NCCN2CCOCC2)cc1OC	-11.5%	-11.9%
COc1ccc(C2C(C(=O)/C=C/c3ccco3)=C(O)C(=O)N2CCN2CCOCC2)cc1OC (centres undefined)	-17.6%	-6.4%
O=C(CCC(=O)OCc1ccc(Cl)cc1)Nc1ccccc1	-20.9%	-10.4%
Cc1cc(N2CCCC2=O)ccc1S(=O)(=O)NCCOc1ccccc1	-12.8%	-5.3%
COc1ccc(Cl)cc1NC(=O)CSc1nccn1Cc1ccco1	i	-11.2%
Cc1ccccc1NS(=O)(=O)c1ccc2[nH]cc(C(=O)N3CCCC3)c(=O)c2c1	1.2%	2.9%
CCO[C@@H]1OC(C(N)=O)=C[C@H](c2ccc3c(c2)OCO3)[C@H]1CCCO	i	-6.0%
CCNC(=O)N(C)C[C@H]1N[C@@](C)(C(=O)OC)[C@H]2C(=O)N(C)C(=O)[C@@H]12	3.7%	7.6%
CC(C)(C)C(=O)OCC1OC(n2cnc(C(N)=O)n2)C(O)C1O (centres undefined)	i	-6.6%
O=C(NCC(c1ccco1)N1CCc2ccccc21)c1ccccc1 (centres undefined)	u	-4.4%
O=C(NCc1ccccc1Cl)/C(=C\c1cccnc1)NC(=O)c1ccccc1	0.6%	4.2%
CN(C(=O)c1cc2nc(-c3ccco3)cc(C(F)(F)F)n2n1)C1CCCCC1	i	-6.1%
Nc1ccccc1Oc1ncc(C(F)(F)F)cc1Cl	-2.0%	-6.7%
O=C(O)CCc1ccc(-c2cccs2)n1CCC(=O)O	-12.6%	-2.0%
Cc1c(C)c2c(OCC(=O)N3CCC(O)CC3)cc3c(c2oc1=O)CCC(C)(C)O3	-2.2%	5.9%
O=C(CCCC(=O)OCC(Cl)=C(Cl)Cl)Nc1ccccc1	i	-8.3%
CCCN(C1CCS(=O)(=O)C1)S(=O)(=O)c1ccc(F)cc1 (centres undefined)	-10.1%	0.6%
CC(=O)N1Cc2cc(C(=O)NCc3cccc(F)c3)nc(-c3cccc(C4=CCCC4)c3)c2[C@H]1CCO	-22.7%	-20.8%
CNC(=O)COC(=O)/C=C/c1cccs1	1.5%	3.9%
COc1cc(C=NNC(=O)c2ccccc2-n2cccc2)ccc1O	-24.2%	-21.3%
NC(=O)CN1CCN(c2ccccc2F)CC1	x	0.6%
COc1ccc(OCc2ccc(C(=O)N3CCOCC3)cc2)cc1	-0.5%	8.5%
O=c1[nH]c(=O)n(C2OC(CO)C(O)C2O)cc1F (centres undefined)	1µM*	u
CCCCCN(C(=O)CCC(=O)OCc1ccccc1Cl)c1c(N)n(CCCC)c(=O)[nH]c1=O	u	-24.4%
O=C(Cc1noc2ccccc12)Nc1ccccn1	i	-8.9%
CN1NC(c2ccccc2)NN(C)C1=O	13.5%	2.0%
Cc1cc(C)n(CCN(C)C(=O)c2cc(COc3c(F)cccc3F)on2)n1	i	-9.5%
Cc1cccc(N2C(=O)SC(N(CC(=O)O)c3cccc(C)c3)C2=O)c1 (centres undefined)	9.3%	1.2%
CC(Sc1ccccc1)C(=O)NN=C1CCCCCC1 (centres undefined)	i	-3.6%
Cc1ccc(Cc2c(-c3cccc(Cl)c3)nc3c4ccccc4ccn23)cc1	10.4%	10.1%
CCOC(=O)Cc1c(C)nc2c(-c3cccc(Br)c3)c[nH]n2c1=O	i	-6.2%
CCOC(=O)CNc1nc(Cl)nc(NC(C)(C)C)n1	-1.4%	-4.8%
CCOc1ccc(N(CC(=O)NCc2ccc(Cl)cc2)S(=O)(=O)c2c(C)noc2C)cc1	-8.2%	3.6%
C=CCNC(=O)CN(c1ccc(F)cc1)S(=O)(=O)c1ccc(OC)cc1	x	-20.3%
CCOc1ccc2nc(C(C)O)[nH]c2c1 (centres undefined)	i	1.5%
Cc1[nH]nc(SCC(=O)N2CCOCC2)c1[N+](=O)[O-]	-3.9%	-0.4%
Cc1cccc(C(=O)NCc2nc(-c3cccc(NC(=O)C4CCCN(C)C4)c3)oc2C)n1 (centres undefined)	-13.3%	1.1%
Cc1nc2sccn2c1CN1Cc2ccccc2OC(c2ccccc2F)C1 (centres undefined)	-6.4%	-0.1%
Cn1ncc2c(Nc3ccccc3Cl)nc(Cl)nc21	i	-16.5%
CN(C)c1ccc(NC(=O)C2CCCN(S(=O)(=O)c3ccccc3)C2)cc1 (centres undefined)	i	-4.0%
Cc1cc(NC(=O)COC(=O)c2c(C)nn(Cc3ccccc3Cl)c2C)no1	-1.2%	-20.5%
COc1ccc(C(C)=O)cc1COc1ccc(-n2cnnn2)cc1	x	-24.0%
O=C1[C@H]2CC3CCC2(O3)[C@@H]2OCCCN12 (some centres undefined)	i	-12.5%

Next section.
canonical_smiles	VACV mCherry inh	Vaccinia Venus
O=C(NCCCn1ccnc1)/C(=C\c1cccnc1)NC(=O)c1cccc(Br)c1	-8.9%	-8.5%
NC1=NC(=O)/C(=C\c2ccco2)S1	-9.8%	-8.8%
COc1ccccc1CNC(=O)CSc1ncc2c(n1)-c1cc(Cl)ccc1N(Cc1ccccc1)S2(=O)=O	-11.4%	-1.4%
Nn1c(COc2ccccc2)nnc1SCc1cc(=O)[nH]c2ccccc12	-21.1%	-7.8%
O=C(c1ccccc1)N1CCc2ccccc21	-16.3%	-16.8%
Cc1ccccc1NC(=O)CSC1=C(C#N)C(c2ccsc2)CC(=O)N1 (centres undefined)	x	u
CCOC(=O)c1csc(NC(=O)CSc2nnnn2CC)n1	-17.6%	-13.6%
COc1cccc(/C=C(/C(=O)OCC(N)=O)c2ccccc2)c1	-30.0%	-21.0%
CC(C)C[C@H]1CN(CCCC[C@@H]2CNC(=O)C(=O)N2Cc2ccccc2)C(=O)C(=O)N1CC1CCCCC1	8.4%	5.0%
NS(=O)(=O)c1ccc(N=Nc2c(O)ccc3ccccc23)cc1	i	-10.2%
O=[N+]([O-])c1cccc(/C=N/N2CCN(c3ccccn3)CC2)c1	-18.9%	-9.4%
Cc1nc2sc3c(c2c(=O)n1N)CCC3	-0.9%	-4.8%
COc1cccc(/C=N/NC(=O)c2ccc(=O)n(C)c2)c1OC	-8.9%	-11.2%
CCNC(=S)Nc1cccc(F)c1C	-13.1%	0.5%
COc1cc(-c2csc(C)n2)ccc1O	i	-18.4%
CCC1(C(=O)OC)NC(c2ccco2)C2C(=O)N(c3ccccc3)C(=O)C21 (centres undefined)	-10.1%	-6.6%
CC1=[N+]([O-])C(C)(C)C(C)N(O)C1=O (centres undefined)	x	-5.0%
CCn1cc([C@@H]2C[C@H]3CN(Cc4cccc(Cl)c4)C(=O)[C@]34CCCN24)c(C)n1	i	-10.7%
COc1ccc(C)cc1NC(=O)C1CCCN(S(=O)(=O)c2cccc3nonc23)C1 (centres undefined)	-6.4%	1.3%
O=C(/C=C/c1ccccc1Cl)NCCN1CCOCC1	-12.1%	-6.0%
O=C(N/N=C/c1ccc(O)c(O)c1)c1cccc(S(=O)(=O)N2CCCCC2)c1	i	-0.7%
COc1ccc(C(CNC(=O)c2oc3cc(Br)ccc3c2C)N2CCCCC2)cc1 (centres undefined)	-16.7%	-24.4%
CCCC(c1nnnn1Cc1cccs1)N1CCN(c2nc3ccccc3s2)CC1 (centres undefined)	u	u
COc1ccc(CNC(=O)CCSCc2cccc(F)c2)cc1	-13.4%	-7.8%
CCn1c(CSc2nc3ccccc3s2)nnc1SCC(=O)c1ccc(Cl)cc1	u	u
COC(=O)c1sccc1S(=O)(=O)N1CCN(c2cccc(C)c2C)CC1	-14.5%	-5.2%
O=C(CC1C(=O)NCCN1Cc1cccc(C(F)(F)F)c1)NC1CCCCCC1 (centres undefined)	-0.5%	-11.7%
O=c1[nH]c(=O)n(Cc2ccco2)c(O)c1C=NC1CCN(Cc2ccccc2)CC1	-3.0%	0.0%
CCCOc1ccc(N2C(=O)CC(N(CCc3ccc(OC)cc3)C(=O)/C=C/C(=O)O)C2=O)cc1 (centres undefined)	-10.5%	-13.3%
Cc1cccc(C2c3[nH]c4ccccc4c3CCN2C(=O)c2cc(-c3cccn3C)n[nH]2)n1 (centres undefined)	-2.5%	u
CCCNc1nc(Cl)nc(Nc2ccc(Cl)cc2)n1	-1.9%	u
COc1cc2c(cc1OC)C(C(=O)N1CCC3(CC1)OCCO3)C(c1ccccc1F)N(C)C2=O (centres undefined)	-1.8%	0.7%
CCc1nnc(NC(=O)CSc2nc3c(cc2C#N)CCC3)s1	-23.5%	-17.5%
CCOC(=O)C1(C)CCCN(C(=O)c2cccc(C#N)c2)C1 (centres undefined)	-6.7%	7.2%
COc1ccc(C(=O)NNC(=O)C(=O)Nc2ccc(C)cc2)cc1	-16.0%	-10.7%
CC1(C)CC2CC(C)(CN2C(=O)c2cc(-c3ccc(O)cc3)on2)C1 (centres undefined)	u	-15.1%
CCCC(=O)Nc1nnc(S(=O)(=O)N(CC)c2ccc(OC)cc2)s1	-28.6%	-14.7%
COc1ccc(CCNS(=O)(=O)c2cc(-c3onc(C)c3C)ccc2OC)cc1OC	-10.6%	-5.8%
COc1ccc(C)cc1NS(=O)(=O)c1ccc2c(c1)N(C)CCO2	-17.1%	-21.5%
O=C(COC(=O)c1cccs1)NCCC1=CCCCC1	i	-9.2%

Three compounds out of the list, ordered by length of the SMILES, smallest number first.
canonical_smiles	VACV mCherry inh	Vaccinia Venus
COc1ccc(OCc2ccc(C(=O)N3CCOCC3)cc2)cc1	-0.5%	8.5%
CCCCCN(C(=O)CCC(=O)OCc1ccccc1Cl)c1c(N)n(CCCC)c(=O)[nH]c1=O	u	-24.4%
COC(=O)[C@@]1(Cc2ccc(OC)cc2)[C@H]2c3cc(C(=O)N4CCCC4)n(Cc4ccc(Cl)c(C(F)(F)F)c4)c3C[C@H]2CN1C(=O)c1ccccc1	-21.2%	-15.8%

Next part
canonical_smiles	VACV mCherry inh	Vaccinia Venus
Cc1ccc(OCCc2csc(N)n2)cc1	-19.0%	-26.8%
Cc1ccc(Cn2nnnc2CN2CCC(O)(c3ccc(F)cc3)CC2)cc1	i	-19.7%
CC1CCCN(C(=O)COC(=O)COc2ccc(Cl)cc2)C1 (centres undefined)	-11.2%	-12.7%
Fc1ccc(CN2C3=NCCCN3c3ccccc32)cc1	-27.4%	-19.8%
Cc1cc(-n2cccn2)ccc1CN1CCN(C2CCCC2)C(CCO)C1 (centres undefined)	-12.0%	-14.8%
Oc1ccc(-c2n[nH]c(=S)n2-c2ccc3c(c2)OCCO3)c(O)c1	u	-26.3%
COc1cc(Cl)c(C)cc1NC(=O)Cn1c(NCCO)nc2ccccc21	-12.2%	-19.0%
COc1ccc(NC(=O)c2ccc3c(=O)n(-c4ccc(OC)cc4OC)c(=S)[nH]c3c2)c(OC)c1	-8.3%	-25.7%
CC(=O)Nc1ccc(S(=O)(=O)N2CCC(NC(C)=O)(c3cccc(F)c3)CC2)cc1	i	-10.6%
CC(Oc1ccc(Cl)cc1)C(=O)Nc1ncccn1 (centres undefined)	i	-2.1%

Some of the entries so far, as labelled records:
Cc1ccc(OCCc2csc(N)n2)cc1
  VACV mCherry inh: -19.0%
  Vaccinia Venus: -26.8%

Fc1ccc(CN2C3=NCCCN3c3ccccc32)cc1
  VACV mCherry inh: -27.4%
  Vaccinia Venus: -19.8%

CC(=O)Nc1ccc(S(=O)(=O)N2CCC(NC(C)=O)(c3cccc(F)c3)CC2)cc1
  VACV mCherry inh: i
  Vaccinia Venus: -10.6%

COc1cc(Cl)c(C)cc1NC(=O)Cn1c(NCCO)nc2ccccc21
  VACV mCherry inh: -12.2%
  Vaccinia Venus: -19.0%

Following part
canonical_smiles	VACV mCherry inh	Vaccinia Venus
NC(=O)C1(N2CCCCC2)CCN(S(=O)(=O)c2ccc(Cl)s2)CC1	i	-21.1%
Cc1cccc(OCc2ccc(C(=O)Nc3ccc(F)cc3)cc2)c1	-7.7%	-16.4%
Cc1cc(-c2ccc(S(=O)(=O)Nc3cccc(Cl)c3C)cc2)on1	u	u
Cc1ccc(C(=O)C=Cc2ccc3c(c2)OCO3)c(C)c1	-4.7%	-7.2%
CCOc1ccc(OCCC(=O)N(CC)CC(=O)NCc2ccc(Cl)cc2)cc1	-12.9%	-0.7%
N#CC1=C(N)OC2=C(C(=O)CCC2)C1c1cc2c(cc1Cl)OCO2 (centres undefined)	i	-11.8%
Cc1cc(O)c(/C=N/Nc2ccccc2)c(=O)o1	x	-15.1%

Assay outcomes: PubChem, National Center for Advancing Translational Sciences (NCATS)
